Cruzain inh noDet – qHTS Assay for Promiscuous and Specific Inhibitors of Cruzain (without detergent); AID 1476, 2009; Potency, µM, for inactives: max response, negative = inhibition, actives largely listed as inhibitors; purified cruzain, Z-FR-AMC fluorescence, no detergent; Cruzipain (Trypanosoma cruzi), P25779; 200,000 compounds, 2.3% hits;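 note: plate controls were enzyme without inhibitor for no effect and buffer without enzyme for full effect; nearly all actives have a fitted effect of over 40% in size; top concentration of the series not given in the record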
Target sequence (P25779 123-467 limits assumed): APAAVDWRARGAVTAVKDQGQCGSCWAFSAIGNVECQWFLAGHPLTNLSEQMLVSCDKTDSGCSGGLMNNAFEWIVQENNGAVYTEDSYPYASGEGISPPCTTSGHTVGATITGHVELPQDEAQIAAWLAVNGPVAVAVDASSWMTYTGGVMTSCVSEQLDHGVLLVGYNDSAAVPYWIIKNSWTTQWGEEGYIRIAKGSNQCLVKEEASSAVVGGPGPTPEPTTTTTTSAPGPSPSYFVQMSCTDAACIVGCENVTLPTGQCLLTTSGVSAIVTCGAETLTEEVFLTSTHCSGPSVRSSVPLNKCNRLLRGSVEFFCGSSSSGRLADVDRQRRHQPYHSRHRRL
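Detergent-free condition (0.00005% Triton X-100) in acetate buffer pH 5.5 with DTT. 1.5 nM enzyme and compound were pre-mixed 15 min, then 2 uM Z-FR-AMC substrate added; reaction progress from fluorescence change between first and third reads (60 s).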
SARS PLP yeast – qHTS of Yeast-based Assay for SARS-CoV PLP; S. cerevisiae expressing SARS-CoV PLpro, growth rescue; control for the full effect not named in the record; Potency, µM (top dose mostly 32.9 µM), for the others: at the highest dose activity, positive = growth rescue; 330,000 compounds, 0.19% hits; AID 485353, 2010; active means well fitted rising curve with a large enough effect; inconclusive means small, poorly fitted or top-dose-only effect; inactive means no such curve, though single readings can be large or run the other way; note: 0% is about no effect; nearly all actives have a fitted effect of over 55% in size; growth read by luminescence after 48 h
RE007 growth inh – qHTS Assay for Inhibitors of the HIV-1 protein Vpr. AID 651644, 2012. 360,000 compounds, 0.21% hits. Potency, µM (top dose mostly 92.2 µM), without a hit: top-dose activity change, negative = less growth. S. pombe RE007 Vpr strain, BacTiter-Glo ATP luminescence, 24 h; control for the full effect not named in the record; active = well fitted falling curve with a large enough effect; inconclusive = small, poorly fitted or top-dose-only effect; inactive = no such curve, though single readings can be large or run the other way;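 note: % is set by controls: 0 for no effect and ±100 for the full control effect; nearly all actives have a fitted effect of over 50% in size; the assay follows cell death caused by Vpr and the record does not say whether a fall means rescue or toxicity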
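Fission yeast RE007 carrying one integrated HIV-1 vpr copy, seeded at OD 0.01 in PMG+AL medium with 23 nL pinned compound. Grown 24 h at 30 degrees; viability read by BacTiter-Glo luminescence after 5 min.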
Cruzain inh Det – qHTS Assay for Promiscuous and Specific Inhibitors of Cruzain (with detergent); Cruzipain (Trypanosoma cruzi), P25779; purified cruzain, Z-FR-AMC fluorescence, 0.01% Triton; Potency, µM, for inactives: max response, negative = inhibition, usual class: inhibitors; 200,000 compounds, 0.43% hits; AID 1478, 2009;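 note: plate controls were neutral wells for no effect and buffer without enzyme for full effect; nearly all actives have a fitted effect of over 40% in size; top concentration of the series not given in the record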
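Cruzain (1.5 nM) preincubated 15 min at RT with compound in 100 mM sodium acetate pH 5.5, 5 mM DTT, 0.01% Triton X-100. Reaction started with 2 uM Z-FR-AMC; AMC fluorescence (ex 360/em 450 nm) change over 60 s gave rate.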
2A StopGo – High Throughput Screening for Foot and Mouth Disease Virus Antivirals; AID 1159524, 2015; human cells with a luciferase reporter of 2A StopGo recoding; control for the full effect not named in the record; Potency, µM (doses to about 57.9 µM), for inactives: top-dose signal change, negative = less light; 410,000 compounds, 1.2% hits; active = well fitted falling curve with a large enough effect; inconclusive = small, poorly fitted or top-dose-only effect; inactive = no such curve, though single readings can be large or run the other way; tested in HEK293T cells; note: % is set by controls: 0 for no effect and ±100 for the full control effect; nearly all actives have a fitted effect of over 45% in size; luciferase light after 4 h
MARV entry inh – qHTS for inhibitors of binding or entry into cells for Marburg Virus | 300,000 compounds, 1.8% hits | Marburg virus pseudotyped entry inhibition, cell reporter; control for the full effect not named in the record; about a third of the inactives were read at about 46 µM | Potency, µM (top dose mostly 37.8 µM), for the others: at the highest dose activity change, negative = inhibition, most hits filed as inhibitors; active = well fitted inhibition curve with a large enough effect; inconclusive = small, poorly fitted or top-dose-only effect, or effect the other way; inactive = flat fitted curve, though single readings scatter; tested in HEK293 cells; about a fifth of its hits are not listed in these tables; note: % is set by controls: 0 for no effect and ±100 for the full control effect; luciferase read-out
NS1 inh – qHTS Assay for Inhibitors of Influenza NS1 Protein Function; 270,000 compounds, 0.4% hits; Potency, µM (titrated, usually from 46.1 µM), without a hit: top-dose activity, positive = more growth; S. cerevisiae slowed by influenza A NS1, growth recovery by OD600; AID 2326, 2010; active means well fitted rising curve with a large enough effect; inconclusive means small, poorly fitted or top-dose-only effect; inactive means no such curve, though single readings can be large or run the other way; note: nearly all actives have a fitted effect of over 50% in size
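Compounds were scored for reversing the slow growth caused by influenza A NS1 in S. cerevisiae, measured by optical density at 600 nm. Assay medium contained 2% galactose at pH 6.0; NS1-free yeast of the same strain were the positive control.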
LASV entry inh – qHTS for Inhibitors of binding or entry into cells for Lassa Virus. Lassa virus pseudotype entry inhibition, cell reporter; control for the full effect not named in the record. 300,000 compounds, 1.2% hits. Potency, µM (series often up to 37.9 µM), inactives show at the top dose activity change, negative = inhibition, actives largely listed as inhibitors; active means well fitted inhibition curve with a large enough effect; inconclusive means small, poorly fitted or top-dose-only effect, or effect the other way; inactive means flat fitted curve, though single readings scatter; tested in HEK293 cells; note: % is set by controls: 0 for no effect and ±100 for the full control effect; nearly all actives have a fitted effect of over 50% in size; luciferase read-out
The depositor's hits bear a star; [ ] = another dose, or the depositor's remark. Unless noted, calls come from the whole dose curve; as a rule, active = well fitted curve in the direction sought with a large enough effect; inconclusive = small, poorly fitted or top-dose-only effect, or another doubt; inactive = no such curve, though single readings can be large; an effect the other way counts as inactive or inconclusive. Potency is the fitted concentration of half-maximal effect. No enrichment for hits; about 4.6% have a hit in one of these screens.

COc1ccc(N(CC(=O)Nc2ccc3c(c2)OCO3)S(=O)(=O)c2ccc(F)cc2)cc1 was read as Cruzain inh noDet 20µM*, SARS PLP yeast 20%, RE007 growth inh 2%, Cruzain inh Det -5.2%, 2A StopGo 24%, MARV entry inh -7%, NS1 inh 11% and LASV entry inh -9%.
c1ccc2oc(SCc3cn4ccsc4n3)nc2c1 was read as Cruzain inh noDet -6%, SARS PLP yeast -6%, RE007 growth inh inconclusive, Cruzain inh Det -3.1%, 2A StopGo -13%, MARV entry inh -3%, NS1 inh -39% and LASV entry inh inconclusive.
For Cc1cccc(N(CC(=O)Nc2ccc(-c3nc4ccc(C)cc4s3)cc2)S(C)(=O)=O)c1 the results were Cruzain inh noDet -6%, SARS PLP yeast -1%, RE007 growth inh 9%, Cruzain inh Det 0.1%, 2A StopGo 15%, MARV entry inh 0%, NS1 inh 10% and LASV entry inh -15%.
`CC(C)=C1C2CCC1C1C(=O)N(NC(=O)COc3ccc(Cl)c(C)c3)C(=O)C21` (stereo not drawn) gave Cruzain inh noDet 3%, SARS PLP yeast -13%, RE007 growth inh -1%, Cruzain inh Det -6.2%, 2A StopGo -17%, MARV entry inh 3%, NS1 inh 3% and LASV entry inh -4%.
`CCCN(CC(=O)Nc1ccccc1OC)C(=O)c1ccc(=O)[nH]c1` gave SARS PLP yeast 0%, RE007 growth inh 4%, 2A StopGo -14%, MARV entry inh 9%[46.1 µM], NS1 inh 6% and LASV entry inh 16%.
For CCOc1ccc(C(=O)/C=C/Nc2ccc(S(=O)(=O)N=C(N)N)cc2)cc1 the results were Cruzain inh noDet -18%, SARS PLP yeast -11%, RE007 growth inh 6%, Cruzain inh Det -4.8%, 2A StopGo -7%, MARV entry inh -31%, NS1 inh -6% and LASV entry inh 1%.
Screening O=c1/c(=C/c2ccccc2)sc2nnc(-c3cccs3)n12 returned SARS PLP yeast 1%, RE007 growth inh 1%, 2A StopGo -11%, MARV entry inh 5%[46.1 µM], NS1 inh 7% and LASV entry inh -1%.
Screening CCC(C)[C@H](NC(=O)OC(C)(C)C)C(=O)NCC1CCC(C(=O)N[C@@H](Cc2ccccc2)C(=O)O)CC1 (stereo partly drawn) returned SARS PLP yeast 0%, RE007 growth inh 12%, 2A StopGo -16% and NS1 inh 5%.
CC(c1ccccc1C(=O)O)c1cc(F)cc2ccccc12 (stereo not drawn) was read as RE007 growth inh -7%, 2A StopGo -12%, MARV entry inh -13%[46.1 µM] and LASV entry inh -6%[46.1 µM].
Screening CC(CCc1ccccc1)NC(=O)COc1cc(F)ccc1[N+](=O)[O-] (stereo not drawn) returned SARS PLP yeast -2%, RE007 growth inh 33%, 2A StopGo -10%, MARV entry inh 18%[46.1 µM] and LASV entry inh 22%.
`Cc1ccc(C)c(C(=O)Cn2ncc(Cl)c(Cl)c2=O)c1` gave Cruzain inh noDet -1%, SARS PLP yeast -2%, RE007 growth inh 19%, Cruzain inh Det -2.9%, 2A StopGo 32µM*, MARV entry inh 10µM*, NS1 inh 3% and LASV entry inh inconclusive.
For Cc1ccc(-n2nc(C)c3c(C(=O)NCCc4ccccc4)cc(C)nc32)cc1 the results were Cruzain inh noDet -3%, Cruzain inh Det -2.9%, 2A StopGo -6% and LASV entry inh -15%[46.1 µM].
`COc1ccc(NC(=O)CSc2sc3c(O)cc(=O)[nH]c3c2C#N)c(OC)c1` gave SARS PLP yeast 4%, RE007 growth inh -5%, 2A StopGo 8%, MARV entry inh 18%[46.1 µM], NS1 inh 28% and LASV entry inh 7%.
Screening COc1ccccc1CCn1cnc2c3cc(C)ccc3n(C)c2c1=O returned Cruzain inh noDet 14%, SARS PLP yeast -1%, RE007 growth inh 0%, Cruzain inh Det -9.1%, 2A StopGo -22%, MARV entry inh inconclusive, NS1 inh -2% and LASV entry inh -20%.
`C=CCn1c(N)c(C(=O)NCC2CCCO2)sc1=S` (stereo not drawn) gave Cruzain inh noDet -5%, SARS PLP yeast 0%, RE007 growth inh -6%, Cruzain inh Det 2.7%, 2A StopGo -16%, MARV entry inh -2%, NS1 inh -3% and LASV entry inh 18%.
CCCc1cc2c(cc1NC(=O)c1ccc(C(C)(C)C)cc1)OCO2 was read as Cruzain inh noDet -3%, SARS PLP yeast -8%, RE007 growth inh -6%, Cruzain inh Det -11%, 2A StopGo 43%[activator], MARV entry inh inconclusive, NS1 inh -10% and LASV entry inh -6%.
COc1ccc(OC)c(NC(=O)NNC(=O)COc2ccc(-c3ccccc3)cc2)c1 was read as SARS PLP yeast -5%, RE007 growth inh 1%, 2A StopGo -21%, MARV entry inh inconclusive, NS1 inh -3% and LASV entry inh 10%.
For COc1ccc(C(=NNc2ccccc2C(=O)O)c2ccc(OC)cc2)cc1 the results were Cruzain inh noDet -15%, SARS PLP yeast 6%, RE007 growth inh -7%, Cruzain inh Det -13%, 2A StopGo inconclusive, MARV entry inh -9%, NS1 inh -16% and LASV entry inh -9%.
`CCOc1ccc(CCNC(=O)Cn2ncn3nc(-c4ccc(OC)cc4)cc3c2=O)cc1OCC` gave SARS PLP yeast 1%, RE007 growth inh -9%, 2A StopGo 13% and NS1 inh -10%.
Screening CN(C)c1ccc(C=NCCC2(c3ccccc3)CCOC(C)(C)C2)cc1 (stereo not drawn) returned SARS PLP yeast 0%, RE007 growth inh 2%, 2A StopGo 6%, MARV entry inh -2%[46.1 µM], NS1 inh 0% and LASV entry inh -1%.
For COc1cccc(CNC(=O)c2cc(-c3ccc(Cl)s3)nc3ccccc23)c1 the results were Cruzain inh noDet -13%, Cruzain inh Det -2.9%, 2A StopGo 4%, MARV entry inh -1%[46.1 µM] and LASV entry inh 7%[46.1 µM].
CC1S/C(=N\N=C\c2cccc([N+](=O)[O-])c2)N(C(C)(C)C)C1=O (stereo not drawn) was read as SARS PLP yeast -4%, RE007 growth inh -1%, 2A StopGo inconclusive, MARV entry inh 4%[46.1 µM], NS1 inh -9% and LASV entry inh inconclusive.
`COc1cccc(C(=O)Oc2cc(-c3ccccc3)no2)c1` gave Cruzain inh noDet -3%, SARS PLP yeast -1%, RE007 growth inh 7%, Cruzain inh Det 0.9%, 2A StopGo -5%, MARV entry inh 16%, NS1 inh -5% and LASV entry inh 0%.
Screening Cc1ccc(OC(=O)c2ccc3c(=O)n4c(nc3c2)CCC4)cc1 returned SARS PLP yeast -1%, RE007 growth inh -25%, 2A StopGo 18%, MARV entry inh inconclusive and LASV entry inh -5%.
Cc1[nH]c(=O)[nH]c(=O)c1S(=O)(=O)N1CCCC(C(=O)NCCc2ccc(Cl)cc2)C1 (stereo not drawn) was read as Cruzain inh noDet 3%, SARS PLP yeast -2%, RE007 growth inh 6%, Cruzain inh Det 1.5%, 2A StopGo -15%, MARV entry inh 5%[46.1 µM], NS1 inh -2% and LASV entry inh 4%.
For COc1ccc(C(=O)NC2CCN(C(=S)Nc3cc(C)cc(C)c3)CC2)cc1 the results were Cruzain inh noDet 8%, SARS PLP yeast 21%, RE007 growth inh 11%, Cruzain inh Det -3.4%, 2A StopGo 5%, MARV entry inh -1%, NS1 inh -13% and LASV entry inh 10%.
Cc1ccc(S(=O)(=O)NC(CC(=O)NC2CCCC2)c2ccco2)cc1 (stereo not drawn) was read as Cruzain inh noDet 2%, SARS PLP yeast 3%, RE007 growth inh 11%, Cruzain inh Det -7.0%, 2A StopGo 10%, MARV entry inh -14%, NS1 inh inconclusive and LASV entry inh 0%.
CCN(CC)S(=O)(=O)c1ccc2c(c1)c(=O)c(C(=O)NCc1ccccc1)cn2C was read as Cruzain inh noDet -10%, Cruzain inh Det -1.4%, 2A StopGo -2%, MARV entry inh 6%[46.1 µM] and LASV entry inh inconclusive.
CCc1nnc(NC(=O)CSC(=S)N2CCOCC2)s1 was read as SARS PLP yeast -1%, RE007 growth inh 23%, 2A StopGo -3% and NS1 inh 5%.
Screening O=C(CCN1C(=O)C2C3CCC(C3)C2C1=O)Nc1ccc(Br)cc1 (stereo not drawn) returned Cruzain inh noDet -3%, SARS PLP yeast 5%, RE007 growth inh -14%, Cruzain inh Det 0.5%, 2A StopGo 30%[activator], MARV entry inh -10%, NS1 inh -9% and LASV entry inh -4%.
`CN(CC(=O)Nc1ccc(Cl)c(Cl)c1)C(=O)CNC(=O)Cc1ccccc1` gave SARS PLP yeast -8%, RE007 growth inh 1%, 2A StopGo -11%, MARV entry inh 0% and LASV entry inh inconclusive.
`O=C(Nc1ccc(Nc2ccncc2)cc1)c1ccc(Nc2ccnc3ccc([N+](=O)[O-])cc23)cc1` gave SARS PLP yeast -1%, RE007 growth inh -10%, 2A StopGo 5%, MARV entry inh inconclusive, NS1 inh 5% and LASV entry inh -4%.
Screening CCc1ccc(-n2nc3ccc(NC(=O)c4cc(Cl)c(OC)c(Cl)c4)cc3n2)cc1 returned Cruzain inh noDet 0%, Cruzain inh Det 1.0%, 2A StopGo -21%, MARV entry inh -29%[46.1 µM] and LASV entry inh -2%[46.1 µM].
`CCC(=O)N1c2ccc(S(=O)(=O)NCCc3ccc(OC)c(OC)c3)cc2CC1C` (stereo not drawn) gave SARS PLP yeast 4%, RE007 growth inh 1%, 2A StopGo 2%, MARV entry inh -24%[46.1 µM], NS1 inh -18% and LASV entry inh -11%[46.1 µM].
`CCc1c(C)nc2ncnn2c1N1CCC(C(=O)Nc2cccc(C(C)=O)c2)CC1` gave Cruzain inh noDet 0%, SARS PLP yeast 2%, RE007 growth inh -5%, Cruzain inh Det 0.1%, 2A StopGo inconclusive, MARV entry inh -28%, NS1 inh -10% and LASV entry inh -26%.
`CCN(CC)S(=O)(=O)c1ccc(N2CCCCC2)c(NC(=O)c2ccncc2)c1` gave SARS PLP yeast 0%, RE007 growth inh 0%, 2A StopGo -7%, MARV entry inh -30%[46.1 µM] and LASV entry inh inconclusive.

High-throughput results: PubChem, National Center for Advancing Translational Sciences (NCATS)
